MEX-5 binding: C. elegans MEX-5 TCR-2 RNA binding activity; Q9XUB2; MEX-5/FITC-TCR2 RNA binding, fluorescence polarization; hits give low values; activity score (negative = inhibition of binding), % at 10 µM; actives 0.38% (n = 300,000); AID 1832;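 active = inhibition past about -25% in most replicates, and total fluorescence under double the plate's negative control median, limit read from the data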;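 also: 0% = DMSO and -100% = 5 µM competing unlabeled TCR2 RNA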
Target sequence (Q9XUB2 whole entry, looked up): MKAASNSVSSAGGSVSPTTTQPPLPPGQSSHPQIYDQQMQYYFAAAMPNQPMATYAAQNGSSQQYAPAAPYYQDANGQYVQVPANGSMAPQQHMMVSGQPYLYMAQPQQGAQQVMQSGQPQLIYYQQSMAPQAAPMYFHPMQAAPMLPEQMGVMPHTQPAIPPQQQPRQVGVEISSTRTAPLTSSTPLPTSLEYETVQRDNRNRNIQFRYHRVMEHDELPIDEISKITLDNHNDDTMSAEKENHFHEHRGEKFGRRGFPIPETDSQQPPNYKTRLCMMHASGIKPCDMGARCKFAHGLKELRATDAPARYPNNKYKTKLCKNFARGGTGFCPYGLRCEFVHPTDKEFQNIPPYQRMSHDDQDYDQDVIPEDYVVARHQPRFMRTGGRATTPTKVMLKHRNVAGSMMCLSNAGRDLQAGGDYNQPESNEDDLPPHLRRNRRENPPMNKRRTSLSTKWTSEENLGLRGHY
pPAFAH inh: inhibitors of human plasma PAF acetylhydrolase (pPAFAH); recombinant pPAFAH, FP-rhodamine probe fluorescence polarization; inhibition, % at 3.39 µM; actives 1.5% (n = 330,000);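 active = inhibition above the mean inhibition across the screen plus 3 SD, cut at about 25% in these data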;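 also: inhibitors block binding of the rhodamine activity-based probe so polarization drops; 0% = enzyme with DMSO and 100% = wells lacking pPAFAH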
MCL1-BIM inh: disrupts human MCL1 binding to BIM-BH3 peptide; Q07820; GST-MCL1 / FITC-Bim-BH3 fluorescence polarization; inhibition, % at 10.9 µM; actives 0.68% (n = 320,000);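 active = inhibition above the mean inhibition of all tested compounds plus 3 SD, set per campaign, cut at about 40% in these data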;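 also: 0% = DMSO wells and 100% = unlabeled Bim-BH3 peptide control; higher means more loss of mP so more displacement of Bim peptide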
Target sequence (Q07820 whole entry, looked up): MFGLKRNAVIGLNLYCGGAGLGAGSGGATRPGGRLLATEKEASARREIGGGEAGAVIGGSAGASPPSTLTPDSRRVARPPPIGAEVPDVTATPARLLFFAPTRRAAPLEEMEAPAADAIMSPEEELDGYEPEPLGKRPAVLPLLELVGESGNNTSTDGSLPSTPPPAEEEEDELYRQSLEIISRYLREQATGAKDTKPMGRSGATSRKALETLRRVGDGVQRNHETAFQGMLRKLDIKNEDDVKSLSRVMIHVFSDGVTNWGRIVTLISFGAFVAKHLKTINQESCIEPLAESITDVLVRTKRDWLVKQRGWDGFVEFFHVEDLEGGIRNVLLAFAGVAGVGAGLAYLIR
Fam108B inh: counter-screen for RBBP9 inhibitors: inhibitors of mouse Fam108B; recombinant Fam108B, FP-Rh probe fluorescence polarization; inhibition, % at 9.51 µM; actives 0.33% (n = 300,000);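 active = inhibition above the screen mean inhibition plus 3 SD, computed separately per campaign, cut at about 18% in these data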;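 also: inhibitors lower polarization as less probe binds the enzyme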
AHR act: activators of human aryl hydrocarbon receptor; AHR-responsive luciferase reporter cells, luminescence; activation, % at 5 µM; AID 2796; P35869; actives 2.5% (n = 320,000); in the data active = activation above about 47%;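 also: 0% = vehicle wells and 100% = reference agonist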
PAFAH1B2 FP inh: inhibitors of human PAFAH1B2. P68402. recombinant PAFAH1B2, FP-rhodamine activity probe, fluorescence polarization. inhibition, % at 3.39 µM. actives 1.2% (n = 340,000). AID 492953;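 active = inhibition above the mean of all tested compounds plus 3 SD, cut at about 24% in these data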;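 also: 0% = enzyme with DMSO and 100% = wells lacking PAFAH1B2; many of its hits are not listed in these tables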
BCLXL inh: blocks human Bcl-xL binding to Bim BH3 peptide | AID 2129 | actives 0.7% (n = 320,000) | inhibition, % at 10.9 µM | Q07817 | GST-Bcl-xL / FITC-Bim BH3 peptide fluorescence polarization;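 active = inhibition above the mean of all tested compounds plus 3 SD, cutoff set per campaign, cut at about 30% in these data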;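 also: 0% = DMSO wells and 100% = unlabeled Bim-BH3 peptide competitor; inhibitors lower millipolarization by displacing the labeled peptide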
Target sequence (Q07817 whole entry, looked up): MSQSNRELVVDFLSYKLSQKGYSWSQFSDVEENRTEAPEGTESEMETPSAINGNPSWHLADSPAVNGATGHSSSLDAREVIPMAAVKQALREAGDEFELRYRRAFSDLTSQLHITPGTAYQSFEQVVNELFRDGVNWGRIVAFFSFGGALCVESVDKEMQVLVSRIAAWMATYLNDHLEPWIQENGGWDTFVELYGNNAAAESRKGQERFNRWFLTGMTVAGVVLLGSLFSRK
GLD-1 TGE inh: GLD-1-TGE RNA interaction inhibition (C. elegans); purified GLD-1 + fluorescein TGE RNA, fluorescence polarization; inhibition, % at 5.96 µM; actives 0.44% (n = 320,000); Q17339; AID 2280;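 active = percent inhibition above a per-plate cutoff, the plate mean of test compounds plus 3 SD, cut at about 30% in these data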;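 also: 0% = DMSO wells with GLD-1 and probe and 100% = wells lacking GLD-1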
An asterisk follows results filed as active; / = not tested or not shown. Only part of the results is shown; count on the stated rates, not on these rows.

Letter code – A = MEX-5 binding; B = pPAFAH inh; C = MCL1-BIM inh; D = Fam108B inh; E = AHR act; F = PAFAH1B2 FP inh; G = BCLXL inh; H = GLD-1 TGE inh
Cc1cc(C)c(NC(=O)C2CCCN2C)c(C)c1 (configuration not stated)
  A: 1.7	B: 5	C: 7	D: 1	E: 6	F: -3	G: 3	H: 6
COc1cc(OC)c(OC)cc1CN1CCN(C(=O)c2cccc3ccccc23)CC1
  A: -1.1	B: -3	C: 3	D: 2	E: 3	F: 0	G: 2	H: 0
CCOc1ccc(N(CC(=O)N2CCCC2)S(=O)(=O)c2ccc(Cl)cc2)cc1
  A: -1.9	B: 1	C: 0	D: -3	E: -2	F: -2	G: 3	H: 6
COC(=O)c1sccc1NC(=O)CSc1ccccc1NS(=O)(=O)c1ccc(F)cc1
  A: 1.7	B: 8	C: 9	D: 2	E: 7	F: 11	G: 0	H: 6
O=C(CN1CCN(Cc2ccc3c(c2)OCO3)CC1)Nc1cc(S(=O)(=O)N2CCCC2)ccc1Cl
  A: 1.9	B: 4	C: 4	D: 2	E: 0	F: 3	G: -1	H: -6
CCN(C(=S)Nc1cccc(C)c1)c1ccccc1
  A: -1.2	B: 3	C: 5	D: 0	E: 0	F: 1	G: 2	H: -2
Nc1ccc(-c2nc3ccc(-c4nc5ccccc5o4)cc3[nH]2)cc1
  A: -4.7	B: 10	C: 2	D: 11	E: -13	F: 3	G: -1	H: 0
COc1cc(Cl)cc(/C=C/c2ccc3ccccc3n2)c1OC(C)=O
  A: -0.1	B: -4	C: 1	D: -7	E: 3	F: 3	G: 8	H: 7
CC1(C)C(=O)Nc2ccccc2N1C(=O)COC(=O)c1cc(S(=O)(=O)N2CCOCC2)ccc1F
  A: 0.9	B: 6	C: 7	D: 3	E: -2	F: 10	G: 6	H: -2
N#Cc1ccccc1NS(=O)(=O)c1cc2c3c(c1)CCC(=O)N3CCC2
  A: -1.2	B: 4	C: 3	D: 8	E: 0	F: 1	G: 6	H: -1
COc1ccc(C2C=C(c3ccc(Br)cc3)Nc3nc(N4C(=O)CCC4=O)nn32)cc1 (configuration not stated)
  A: -28*	B: 2	C: 135*	D: -8	E: -1	F: -1	G: 123*	H: 102*
COc1ccc(/C=N/Nc2nc3ccccc3c(=O)[nH]2)cc1
  A: -0.4	B: 5	C: 3	D: -1	E: 6	F: 1	G: -11	H: 3
O=C(Nc1ccccc1)c1cccnc1N1CCCC1
  A: 0.5	B: -5	C: 4	D: -4	E: 11	F: 3	G: -2	H: 3
COc1ccc(S(=O)(=O)Nc2cccc(-c3ccc4nncn4n3)c2)c(OC)c1
  A: -1.5	B: -1	C: 0	D: -1	E: 3	F: 3	G: 9	H: 5
C(=C1/CCCC2=C1Nc1ncnn1C2c1ccccc1)/c1ccccc1 (configuration not stated)
  A: 1.6	B: -2	C: 7	D: -2	E: -1	F: /	G: 8	H: 1
Cc1ccc(S(=O)(=O)Nc2ccc(S(=O)(=O)Nc3nccs3)cc2)c([N+](=O)[O-])c1
  A: -0.1	B: 8	C: 3	D: -2	E: 0	F: 2	G: 7	H: 0
O=[N+]([O-])c1ccccc1S(=O)(=O)Nc1cccc(-c2ccc3nncn3n2)c1
  A: -1.4	B: 10	C: 1	D: 5	E: 5	F: 4	G: 0	H: 7
Cc1ccc2c(c1)nnn2C1CCN(CC(=O)Nc2ccccc2N2CCOCC2)CC1
  A: 1.4	B: 7	C: 2	D: -1	E: 0	F: 9	G: 4	H: 5
COc1cccc(CSc2nnc(CSc3nc4nc(C)cc(C)n4n3)s2)c1
  A: 0.4	B: -1	C: 1	D: -2	E: -2	F: -2	G: -3	H: -8
COc1ccc(-c2[nH]c(-c3ccc(C)cc3)nc2SCC(=O)Nc2nccs2)cc1
  A: 1.0	B: 4	C: 3	D: 10	E: 55*	F: 4	G: 0	H: 4

Ordered by heavy-atom count (ascending): some entries from above
Letter code – A = MEX-5 binding; B = pPAFAH inh; C = MCL1-BIM inh; D = Fam108B inh; E = AHR act; F = PAFAH1B2 FP inh; G = BCLXL inh; H = GLD-1 TGE inh
O=C(Nc1ccccc1)c1cccnc1N1CCCC1
  A: 0.5	B: -5	C: 4	D: -4	E: 11	F: 3	G: -2	H: 3
N#Cc1ccccc1NS(=O)(=O)c1cc2c3c(c1)CCC(=O)N3CCC2
  A: -1.2	B: 4	C: 3	D: 8	E: 0	F: 1	G: 6	H: -1
CCOc1ccc(N(CC(=O)N2CCCC2)S(=O)(=O)c2ccc(Cl)cc2)cc1
  A: -1.9	B: 1	C: 0	D: -3	E: -2	F: -2	G: 3	H: 6
Cc1ccc2c(c1)nnn2C1CCN(CC(=O)Nc2ccccc2N2CCOCC2)CC1
  A: 1.4	B: 7	C: 2	D: -1	E: 0	F: 9	G: 4	H: 5

Next entries follow.
Letter code – A = MEX-5 binding; B = pPAFAH inh; C = MCL1-BIM inh; D = Fam108B inh; E = AHR act; F = PAFAH1B2 FP inh; G = BCLXL inh; H = GLD-1 TGE inh
COc1ccc(NC(=O)CSCc2ccccc2C)cc1
  A: 0.2	B: 0	C: 2	D: 2	E: 3	F: 7	G: 4	H: -3
O=C1N(CN2C(=O)C3(OCCO3)c3ccccc32)c2ccccc2C12OCCO2
  A: -0.5	B: 6	C: -2	D: -1	E: 5	F: 3	G: 0	H: 4
O=C(NC1CCCC1)C1CCN(C(=O)c2ccc(Cl)cc2Cl)CC1
  A: 0.6	B: 0	C: 2	D: -3	E: -2	F: 8	G: 2	H: -1
CCCCN(CC)CCNC(=O)c1cc2c(-c3ccccc3F)nn(C)c2s1
  A: 1.0	B: 1	C: 5	D: -6	E: 9	F: 2	G: -1	H: -2
CC(C)NC(=O)C1(S(=O)(=O)c2ccccc2)CC=CC1
  A: -0.4	B: 3	C: -1	D: 0	E: 2	F: 5	G: -1	H: 3
COc1cc(NC(=O)COC(=O)[C@@H]2CCCN2S(=O)(=O)c2ccc(Cl)cc2)cc(OC)c1OC
  A: 0.6	B: 4	C: -3	D: 0	E: -3	F: 1	G: 0	H: 4
COc1ccc(-c2oc(NC(C)=O)c(C#N)c2-c2ccc(OC)cc2)cc1
  A: -1.4	B: 9	C: -2	D: 7	E: -3	F: 10	G: 2	H: 3
COc1cccc(NC(=O)[C@@H]2CCCN2C(=O)C2CCN(S(=O)(=O)c3ccc(C)cc3)CC2)c1
  A: 1.2	B: 7	C: 1	D: -3	E: 0	F: 9	G: 5	H: 12
CCN(CC)S(=O)(=O)c1cccc(C(=O)OCC(=O)NCc2ccccc2OC)c1
  A: 0.0	B: 32*	C: -1	D: 2	E: -2	F: 5	G: -1	H: 5
COc1ccc(S(=O)(=O)N2CCCCCC2)cc1C(=O)NCc1ccc(C)cc1
  A: /	B: 3	C: -6	D: /	E: 3	F: 1	G: -7	H: 0

Some of the entries so far, with each value named.
> O=C(Nc1ccccc1)c1cccnc1N1CCCC1
  MEX-5 binding = 0.5
  pPAFAH inh = -5
  MCL1-BIM inh = 4
  Fam108B inh = -4
  AHR act = 11
  PAFAH1B2 FP inh = 3
  BCLXL inh = -2
  GLD-1 TGE inh = 3

> COc1ccc(S(=O)(=O)Nc2cccc(-c3ccc4nncn4n3)c2)c(OC)c1
  MEX-5 binding = -1.5
  pPAFAH inh = -1
  MCL1-BIM inh = 0
  Fam108B inh = -1
  AHR act = 3
  PAFAH1B2 FP inh = 3
  BCLXL inh = 9
  GLD-1 TGE inh = 5

Other compounds:
Letter code – A = MEX-5 binding; B = pPAFAH inh; C = MCL1-BIM inh; D = Fam108B inh; E = AHR act; F = PAFAH1B2 FP inh; G = BCLXL inh; H = GLD-1 TGE inh
COc1ccc(OC)c(NC(=O)c2cc(S(=O)(=O)N(C)C)ccc2N2CCCC2)c1
  A: -1.3	B: 6	C: -10	D: 2	E: 0	F: 4	G: -8	H: 3
COc1cc(NC(=O)C2CCN(S(=O)(=O)c3ccc(N4CCCC4=O)cc3)CC2)cc(OC)c1
  A: 0.0	B: 4	C: 1	D: 0	E: 5	F: 2	G: 4	H: 5
CS(=O)(=O)c1cccc(S(=O)(=O)N2CCCCCC2)c1
  A: 0.4	B: 0	C: -4	D: -3	E: -6	F: 6	G: -1	H: 7
CCNc1c(NS(=O)(=O)c2ccc(Br)s2)c(=O)oc2ccccc12
  A: 0.3	B: 1	C: 5	D: 1	E: 4	F: 2	G: 4	H: -7
CNC(=O)NC(=S)NC(=O)c1ccccc1Cl
  A: 0.6	B: 3	C: 9	D: -2	E: -1	F: 1	G: 6	H: -3
Cc1cc(C)n(C(=O)c2ccc(NC(=O)C3COc4ccccc4O3)cc2)n1 (configuration not stated)
  A: 2.3	B: -5	C: -6	D: -1	E: 7	F: 4	G: -2	H: -6
COc1ccccc1CNC(=O)[C@@H]1CCCN1C(=O)C1CCN(S(=O)(=O)c2ccc(C)cc2)CC1
  A: -0.1	B: 5	C: 11	D: 8	E: -1	F: -2	G: 4	H: 3
CC(NC(=O)COC(=O)CNC(=O)c1ccc(-c2ccccc2)cc1)c1ccccc1 (configuration not stated)
  A: 2.8	B: -2	C: 0	D: 6	E: -1	F: -4	G: 1	H: 5
Cc1cc(C(F)(F)F)n(-c2nc(C(=O)NNS(=O)(=O)c3ccccc3[N+](=O)[O-])cs2)n1
  A: -1.2	B: 5	C: 2	D: -2	E: 4	F: -1	G: 4	H: -7
CCN(CC)S(=O)(=O)c1ccc(N2CCOCC2)c(NC(=O)Cc2cccc3ccccc23)c1
  A: -0.9	B: 9	C: 0	D: 1	E: 0	F: -7	G: -3	H: 2
CCN(CC)c1cc(NCCO)c([N+](=O)[O-])c2nonc12
  A: 0.2	B: 6	C: -3	D: 0	E: -2	F: 0	G: -2	H: -1
COCCCNC(=S)NCCNc1nc2cc(C)c(C)cc2cc1C#N
  A: 1.3	B: 4	C: 14	D: 1	E: 8	F: 0	G: 12	H: -3
Cc1ccccc1-c1n[nH]c(=S)n1/N=C/C=C/c1ccco1
  A: -1.1	B: 45*	C: 15	D: 2	E: 4	F: 4	G: 7	H: 3
CCCCc1nc(C(N)=O)c2[nH]c(=O)n(-c3ccccc3F)c2n1
  A: 0.8	B: 8	C: -1	D: 3	E: 3	F: 2	G: -1	H: -3
O=C(CN1CCc2ccccc2C1)Nc1cc(S(=O)(=O)N2CCOCC2)ccc1N1CCCC1
  A: 0.6	B: 3	C: -11	D: 2	E: 13	F: -2	G: 0	H: -5
Cc1ccc(CC(=O)NCCCn2ccnc2)cc1
  A: -1.2	B: 0	C: -2	D: -4	E: 0	F: 2	G: 1	H: -5
Cc1cc(C(=O)N2CCN(C(c3ccccc3)c3ccccc3)CC2)on1
  A: -1.0	B: -8	C: -11	D: -2	E: 3	F: 0	G: -2	H: 3
COc1ccc(S(=O)(=O)N2CCc3ccccc32)cc1C(=O)Nc1cccnc1
  A: -1.1	B: 6	C: 5	D: -1	E: 8	F: 3	G: 4	H: -1
CCOC(=O)c1c(C)[nH]c(C)c1S(=O)(=O)N(C)CC(=O)Nc1ccccc1F
  A: 2.5	B: 5	C: 2	D: -1	E: 4	F: 2	G: 6	H: 1
COc1ccc(NC(=O)C2CCN(S(=O)(=O)c3ccc(N4CCCC4=O)cc3)CC2)c(OC)c1
  A: 0.3	B: 4	C: 1	D: -2	E: 1	F: 4	G: 0	H: 10
